KCNQ2 pot: potentiators of rat KCNQ2 potassium channel; Potassium voltage-gated channel subfamily KQT member 2 (Rattus norvegicus), O88943; CHO-K1 KCNQ2, FluxOR thallium flux fluorescence; active compounds read high; B-score at 10 µM; actives 0.54% (n = 310,000);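 active = fluorescence ratio B-score at least 3 SD of library B-scores, with initial fluorescence B-score within 3 SD, cut at about 5.3 in these data; same plate scores as AID 2156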;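 also: B-score of peak minus minimum over baseline fluorescence ratio after K+ and Tl+ stimulus; positive B-score means potentiation of KCNQ2 with more thallium influx and brighter signal; only the inactives scoring about 0 or higher are listed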
Target sequence (O88943 whole entry, looked up): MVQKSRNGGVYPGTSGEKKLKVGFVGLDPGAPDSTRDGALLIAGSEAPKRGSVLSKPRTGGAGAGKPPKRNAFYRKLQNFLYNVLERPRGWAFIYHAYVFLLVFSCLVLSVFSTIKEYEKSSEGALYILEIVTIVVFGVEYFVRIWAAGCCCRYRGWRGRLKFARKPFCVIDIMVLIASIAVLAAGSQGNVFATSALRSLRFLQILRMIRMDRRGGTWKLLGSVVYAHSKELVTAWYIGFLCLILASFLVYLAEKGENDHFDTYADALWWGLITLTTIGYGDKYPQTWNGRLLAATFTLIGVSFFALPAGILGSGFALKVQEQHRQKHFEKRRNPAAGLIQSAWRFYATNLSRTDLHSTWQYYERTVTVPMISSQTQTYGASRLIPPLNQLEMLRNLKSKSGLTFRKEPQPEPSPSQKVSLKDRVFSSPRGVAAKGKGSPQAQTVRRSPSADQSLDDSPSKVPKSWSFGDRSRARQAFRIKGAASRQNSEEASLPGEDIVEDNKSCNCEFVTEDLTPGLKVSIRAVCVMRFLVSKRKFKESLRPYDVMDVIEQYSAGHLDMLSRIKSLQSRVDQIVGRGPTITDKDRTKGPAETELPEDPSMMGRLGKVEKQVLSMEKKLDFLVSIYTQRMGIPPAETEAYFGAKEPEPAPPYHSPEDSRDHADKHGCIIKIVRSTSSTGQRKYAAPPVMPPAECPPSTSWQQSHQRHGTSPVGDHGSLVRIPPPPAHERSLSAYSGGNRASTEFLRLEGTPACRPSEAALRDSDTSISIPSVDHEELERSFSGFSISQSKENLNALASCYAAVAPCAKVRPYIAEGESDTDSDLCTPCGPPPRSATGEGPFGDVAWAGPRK
KCNQ2 pot baseline: also measured in KCNQ2 pot; calls as there; B-score; compound at 10 µM; measured here: initial fluorescence intensity artifact check;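 brightness before thallium and not channel activity; 0 = typical well and far values either way flag optical interference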
Starred values were filed as active, the others as inactive.

SMILES	KCNQ2 pot	KCNQ2 pot baseline
Cc1cc(SCC(=O)c2cccs2)n2nc(C)c(-c3ccc(Cl)cc3)c2n1	2.4	-1.6
COc1ccc(Cc2noc(-c3ccc(C)cc3)n2)cc1	0.2	0.82
COC1(OC)N=C(N)C2(C#N)C(c3ccc(F)cc3)C12C#N (stereo not given)	1.8	0.51
O=C(O)c1ccccc1N/N=C/c1cc(Br)cc(Br)c1O	1.3	-0.95
O=S(=O)(c1ccc(F)cc1)N1CCn2c(nc3ccccc32)C1	0.06	0.77
COc1ccc(-c2cc(=O)[nH][nH]2)cc1	0.16	1.2
CCOC(=O)C(NCCc1ccccc1)(NC(=O)CC)C(F)(F)F (stereo not given)	0.97	-1.1
COc1cccc(=O)c2c(C)n(CC(=O)c3ccccc3)c(C)c12	0.35	-3
Cc1cc(C)c(S(N)(=O)=O)c(C)c1N(C)S(=O)(=O)c1ccc(Cl)cc1	1.1	0.72
CC(=O)NC1N=C(C)N(c2ccccc2)C1=O (stereo not given)	0.43	0.75

Fetched by compound from the entries so far, 2 records:
SMILES	KCNQ2 pot	KCNQ2 pot baseline
O=C(O)c1ccccc1N/N=C/c1cc(Br)cc(Br)c1O	1.3	-0.95
Cc1cc(C)c(S(N)(=O)=O)c(C)c1N(C)S(=O)(=O)c1ccc(Cl)cc1	1.1	0.72

Carrying on.
SMILES	KCNQ2 pot	KCNQ2 pot baseline
Cc1c(NS(=O)(=O)c2ccc(NCCN3CCOCC3)c([N+](=O)[O-])c2)c(=O)n(-c2ccccc2)n1C	0.91	-1.1
CC1(C)N=C(SCC(=O)Nc2ccc(Cl)cc2)C(c2ccc(Cl)cc2)=N1	0.8	1.7
O=c1nc(N2CCOCC2)nc2n1CCO2	0.87	-1.5
CC(=O)NC(NC(=S)Nc1cccc(Br)c1)C(Cl)(Cl)Cl (stereo not given)	1.4	-0.63
CC(C)(C)NS(=O)(=O)c1ccc2c(c1)oc(=O)c1cc(S(=O)(=O)NC(C)(C)C)ccc12	1.1	-0.67
CCCOc1ccc(CNC(=S)Nc2ccccc2)cc1Cl	0.21	0.71
O=C1CCC(C(=O)NCc2ccccc2)N1 (stereo not given)	1.2	-0.44
O=C(N/N=C/c1cccs1)/C(=C/c1ccccc1)NC(=O)c1ccccc1	0.19	-0.87
O=C(NC1CC(=O)c2sccc21)c1cccc(C(F)(F)F)c1 (stereo not given)	0.09	1.4
NC(=O)C1=C[C@@H](c2ccccc2)C[C@@H](OCc2ccc(CO)cc2)O1	2	-1.5
COc1cccc(CC(=O)N2CCN(S(=O)(=O)c3ccc(Br)cc3)CC2)c1	0.02	0.63
NS(=O)(=O)c1ccc(NS(=O)(=O)c2ccc3c(c2)OCCO3)cc1	0.91	0.36
Cc1cc(=O)c2c(C)ccc(C)c2[nH]1	0.02	-1.2
Cc1ccc(CNc2ccc(N3CCOCC3)c(C(=O)O)c2)s1	2.1	-0.96
O=C(COc1ccccc1[N+](=O)[O-])NNC(=O)Nc1cccc2ccccc12	0.84	2.4
CCOC(=O)C1CCN(C(=O)c2ccccc2NS(=O)(=O)c2ccccc2)CC1	0.03	-0.83
CCCCCCCCOC(=O)c1c(CSC(=N)N)n(C)c2cc(Br)c(OC(C)=O)cc12	0.6	1.2
O=C(Nc1ccc(Cl)c(S(=O)(=O)N2CCCCC2)c1)C1=COCCO1	0.47	-0.07
Cc1ccc(CN(Cc2cc3cc(C)ccc3[nH]c2=O)C(=O)N2CCOCC2)cc1	0.1	0.94
O=C(COC(=O)c1cccc(S(=O)(=O)NCc2ccccc2)c1)c1ccc2c(c1)OCCO2	0.3	0.41
CC(C)CC(=O)Nc1cccc(-c2csc(-c3ccccc3)n2)c1	1.2	-0.02
Cn1nnnc1SCC(=O)Nc1ccccc1C(=O)NC1CC1	0.31	0
CCCCNS(=O)(=O)C1CCS(=O)(=O)C1 (stereo not given)	0.88	0.07
CCOC(=O)C1(CC2CCCCO2)CCN(C2CCSCC2)CC1 (stereo not given)	0.01	1.8
COc1cc(C(c2nnnn2C2CCCC2)N2CCN(C)CC2)cc(OC)c1OC (stereo not given)	1.6	-1.3
Cc1ccc2c(CC(=O)Nc3cccc(S(=O)(=O)N4CCOCC4)c3)coc2c1	1.6	-0.05
O=C(Nc1ccccc1Oc1ccccc1)c1cnccn1	0.2	-0.44
Cc1ccc(CNC(=O)CCCn2nc(C)n3ccnc3c2=O)cc1	1	-0.69
CCC(C)[C@H](N)c1cn([C@@H](Cc2cc3ccccc3[nH]2)C(=O)N2CCNCC2)nn1 (stereo not given in full)	0.12	-0.08
Cc1cc(C)c(S(=O)(=O)N(C)CC(=O)NC2CCCC2)c(C)c1	0.19	0.01
COc1ccc(OC)c(NC(=O)C2COc3ccccc3O2)c1 (stereo not given)	0.69	-1.3
Cc1cc(C(=O)CCl)c(C)n1CCc1ccc(Cl)cc1	1.3	1.5
CCOCc1cc(=O)[nH]c(SC)n1	0.09	-1.4
Cc1c(NC(=O)C(C)OC(=O)c2cc3c4ccccc4n(C)c3s2)c(=O)n(-c2ccccc2)n1C (stereo not given)	0.95	-0.42
CC(=O)Nc1ccc(S(=O)(=O)Oc2cccc(N3C(=O)C4CC=CCC4C3=O)c2)cc1 (stereo not given)	1.6	0.06
COc1ccc(N(CC(=O)N2CCCCC2)S(=O)(=O)c2c(C)nn(C)c2C)cc1	0.06	-0.09
N#Cc1ccc(COC(=O)c2cnc3ccccc3n2)cc1	0.28	-0.01
O=C(Nc1ccccc1Cl)C1CCN(S(=O)(=O)c2cccc3nonc23)CC1	0.16	-1.7
CC(C)C1CC(c2csc(N)n2)CCO1 (stereo not given)	0.34	-1.2
O=C(Nc1cc(NC(=O)c2ccccc2F)ccc1Cl)c1ccccc1	0.71	0.3
CC12CCC(=O)N1C(C(=O)Nc1cccc(F)c1)CS2 (stereo not given)	0.11	-0.08
COc1cc(NS(=O)(=O)c2csc(C(N)=O)c2)cc(OC)c1	1.4	0.5
Cc1cccn2c(=O)c(/C=C(\C#N)S(=O)(=O)c3ccccc3)c(N3CCCCC3)nc12	0.25	-0.54
COC/C=C/C1=CC2=CC(=O)C(C)(OC(=O)c3cnc4ccccc4n3)C(=O)C2=CN1Cc1ccccc1 (stereo not given)	0.58	-1.1
Cn1c(SCC(=O)NCCc2ccccc2)nnc1-c1ccco1	0.39	-1.6
CCCCC[C@H](O)/C=C/[C@@H]1[C@@H](C/C=C\CCCC(=O)OC)[C@@H](O)C[C@H]1O	0.33	0.39
COc1cc(Cn2c(C(=O)O)cc3sccc32)cc(OC)c1OC	1.6	-1.4
Cc1ccc(S(=O)(=O)N2CCCCC2)cc1C(=O)Nc1ccccn1	0.19	1.8
CCN1C(=O)C(CC(=O)Nc2ccc(OC)cc2)N(Cc2ccc(OC)c(OC)c2)C1=S (stereo not given)	1.6	-1.8
COc1ccc(CCNC(=O)CCc2nnc(Cc3ccc4c(c3)OCO4)o2)cc1	0.67	-0.72
Next records:
SMILES	KCNQ2 pot	KCNQ2 pot baseline
COc1ccc(S(=O)(=O)N2CCn3c2nc2ccccc23)cc1	0.39	-1.5
O=C(CSc1nnc2ccccn12)N1CCOCC1	0.7	0.25
N#C/C(=C(/O)COC(=O)c1ccc2c(c1)OCCO2)c1nc2ccccc2[nH]1	0.07	0.94
CC(C)NC(=O)C12CC3CC(C1)CC(C(=O)NC(C)C)(C3)C2	0.74	-1.4
NC(=O)CN1C(=O)C(=O)N(Cc2ccc(Cl)cc2)C1=O	0.74	-0.14
C/C(=N\NC(=O)c1ccc(-c2ccccc2)cc1)c1ccco1	0.34	-1.2
O=C(CCn1nnc2ccccc21)OCC(=O)c1ccc(F)cc1	0.01	0.14
CCn1c(SCc2cccnc2)nnc1-c1c[nH]c2ccccc12	0.26	0.14
CN(C(=O)CN1CCC(NC(=O)c2ccccc2Br)CC1)C1CCCCC1	1.6	0.14
O=C(O)c1ccccc1Oc1ccc(Oc2ccccc2)cc1	2.9	0.46
COc1ccc(N2C(=O)NC(NS(=O)(=O)c3ccccc3)(C(F)(F)F)C2=O)cc1 (stereo not given)	0.47	0.12
COc1ccc(CC(=O)NCc2nnc(SCC(=O)c3ccc(OC)cc3)n2C)cc1	1.3	-0.39
Cc1nc(SC(C)C(=O)Nc2cccc(C(F)(F)F)c2)c2c(C)c(C(=O)O)sc2n1 (stereo not given)	0.76	-2.5
CCc1ccc(NC(=O)CSc2nc3cc(C(=O)OC)ccc3c(=O)n2CC2CCCO2)cc1 (stereo not given)	0.25	1.5
COCCOC(=O)C1=C(C)NC(=O)NC1c1c(OC)ncnc1OC (stereo not given)	0.12	0.24
CC(C)(C)c1ccc(NC(=S)NCc2cccnc2)cc1	1.1	-0.78
COc1ccc2cc(C#N)c(SCC(=O)N3CC(=O)Nc4ccccc43)nc2c1	0.86	-0.07
O=C(Cc1ccccc1)Nc1ccc(NC(=O)c2ccco2)cc1	1.6	-1.2
CC(=O)N1CCN(C(=O)C(Cc2c[nH]c3ccccc23)NC(=O)c2ccccc2Cl)CC1 (stereo not given)	0.46	2.5
O=C(CSc1nnc(SCc2ccccc2)s1)N/N=C/C=C/c1ccccc1[N+](=O)[O-]	1.1	-2.3

Structures shown so far that contain bromine:
SMILES	KCNQ2 pot	KCNQ2 pot baseline
O=C(O)c1ccccc1N/N=C/c1cc(Br)cc(Br)c1O	1.3	-0.95
CC(=O)NC(NC(=S)Nc1cccc(Br)c1)C(Cl)(Cl)Cl (stereo not given)	1.4	-0.63
COc1cccc(CC(=O)N2CCN(S(=O)(=O)c3ccc(Br)cc3)CC2)c1	0.02	0.63
CCCCCCCCOC(=O)c1c(CSC(=N)N)n(C)c2cc(Br)c(OC(C)=O)cc12	0.6	1.2
CN(C(=O)CN1CCC(NC(=O)c2ccccc2Br)CC1)C1CCCCC1	1.6	0.14

The results go on:
SMILES	KCNQ2 pot	KCNQ2 pot baseline
COc1ccc2[nH]c(C(=O)N/N=C/c3cc(OC)c(OC)c(OC)c3)cc2c1	0.13	-0.54
CC1(C)Cc2c(sc(NC(=O)C(=O)N3CCCC3)c2C#N)CO1	0.6	2.1
COC(=O)c1ccccc1NC(=O)NCc1ccco1	1.2	-0.31
CC1(C)NC(=O)N(CCCCOc2ccc(Br)cc2Cl)C1=O	1.7	0.73
Cc1[nH]c2ccc(-c3n[nH]c(=S)n3Cc3ccccc3)cc2c1C	0.02	0.41
O=C(COC(=O)c1cc(Cl)ccc1Cl)NC1CCCC1	1.6	0
O=C(NCc1ccc(Cl)s1)C1CCC(=O)N(CCc2ccccn2)C1 (stereo not given)	1.9	-0.37
N#Cc1c(SCC(=O)Nc2cccc(C(F)(F)F)c2)sc2c(O)cc(=O)[nH]c12	0.67	0.08
CC(=O)NC1=NN(C(C)=O)C(C)(CCS(=O)(=O)c2ccc(Cl)c(Cl)c2)S1 (stereo not given)	1.3	0.37
CCCCNC(=O)N1CCN(C/C=C/c2ccccc2)CC1	1.4	0.77
O=C1c2ccccc2C(=O)N1CCN1CCOCC1	1.3	0.73
COC(=O)CSc1nc(NC(C)C)nc(N(C)C)n1	0.01	0.58
Cc1ccc(S(=O)(=O)N[C@H](C(=O)N2CCC(C(=O)NCC(=O)O)CC2)C(C)C)cc1	0.14	0.04
O=C(c1ccco1)N1CCN(Cc2cccnc2)CC1	0.85	0.96
CCOC(=O)N1CCN(C(=O)COc2cc(=O)n(CC)c3ccccc23)CC1	2.1	1
CC1=NN(c2ccccc2)C(=O)/C1=C/c1c(C)[nH]n(-c2ccc(C)cc2)c1=O	1.5	0.05
O=C(CN(C(=O)CCC(=O)Nc1nccs1)c1ccc(F)cc1)NCc1ccc(F)cc1	0.48	-1.7
CCn1c(SCC(=O)Nc2cc(C)on2)nnc1-c1ccc(S(=O)(=O)N2CCCC2)cc1	1.6	1.2
CCOC(=O)N/N=C/c1ccccc1OCc1ccc(Cl)cc1	1.9	0.33
COc1ccc(NC(=O)Nc2cccc3ccccc23)cc1OC	1	-2
COc1ccc(Cl)cc1NC(=O)CN(C)C(=O)CN1C(=O)NC2(CCCC2)C1=O	1.3	1.5
CCCC(=O)Nc1sc(Cc2ccccc2)c(C)c1C(N)=O	0.31	2.2
O=C(NC(=S)Nc1nc2c(s1)CCCC2)c1ccccc1	3.9	0.77
CC1=C(C(=O)Nc2ccc(C)cn2)C(c2cnn(C)c2)C2=C(CCCC2=O)N1 (stereo not given)	0.36	-1.5
O=C(Cc1ccc(NS(=O)(=O)c2ccc(F)cc2)cc1)NCc1ccccc1	0.63	1.9
COc1ccc2c(c1)C(c1cccs1)=NNC(c1cccnc1)=N2	1.4	0.05
COc1cc2c(cc1[N+](=O)[O-])n(C(C)C)c(=O)n2C(C)C	1.5	-1.6
O=C(Nc1ccccc1C(=O)N1CCCCC1)C1CCCCC1	0.43	0.36
Cn1nc(-c2ccccc2)c(/C=N/O)c1Cl	0.67	1.1
COc1cc(C)ccc1OCc1cc(C(=O)N2CCCCCC2)no1	0.06	0.77
COc1cc(NC(=O)c2cc3sccc3n2C)cc(OC)c1	2.1	-2.3
O=C(Nc1ccccc1OC(F)F)c1ccc(-n2cncn2)c([N+](=O)[O-])c1	0.01	-0.79
CCOc1ccc(CCNC(=O)COC(=O)c2cc(OC)c(OC)c(OC)c2)cc1OCC	0.82	1.5
CCn1c(NC(=O)c2cccs2)nc2ccccc21	0.6	1

Compound profiles, as listed above:
`CC(=O)Nc1ccc(S(=O)(=O)Oc2cccc(N3C(=O)C4CC=CCC4C3=O)c2)cc1` (stereo not given) is entered as KCNQ2 pot: 1.6; KCNQ2 pot baseline: 0.06
`N#Cc1ccc(COC(=O)c2cnc3ccccc3n2)cc1` is entered as KCNQ2 pot: 0.28; KCNQ2 pot baseline: -0.01
`Cc1cc(C)c(S(=O)(=O)N(C)CC(=O)NC2CCCC2)c(C)c1` is entered as KCNQ2 pot: 0.19; KCNQ2 pot baseline: 0.01

Some of the compounds tested; count on the stated rates, not on these rows.
